VACV Venus inh: vaccinia inhibition (Venus reporter); Vaccinia virus Venus reporter expression, fluorescence; Potency, µM (highest dose often 36.5 µM), inactives show at the highest dose activity change, negative = inhibition, usual class: inhibitors; 330,000 tested, 0.46% active; AID 720580; active means well fitted inhibition curve with a large enough effect; inconclusive means small, poorly fitted or top-dose-only effect; inactive means no such curve, though single readings can be large or run the other way; tested in A549 cells; note: nearly all actives have a fitted effect of over 30% in size; inactives centre near -10
Vaccinia mCherry: inhibitors of vaccinia virus infection (mCherry reporter signal). 310,000 tested, 0.63% active. AID 720579. Vaccinia virus mCherry reporter infection, fluorescence; about a quarter of the inactives have no number. Potency, µM (highest dose often 36.5 µM), without a hit: at the top dose activity change, negative = inhibition, most hits filed as inhibitors; active = well fitted inhibition curve with a large enough effect; inconclusive = small, poorly fitted or top-dose-only effect; inactive = no such curve, though single readings can be large or run the other way; tested in A549 cells; note: nearly all actives have a fitted effect of over 35% in size; inactives centre near -10
An asterisk follows results filed as active; i = inactive; ? = inconclusive; nt = not tested or not shown; [ ] = remark or other dose. % is set by controls: 0 for no effect and ±100 for the full control effect; potency is the fitted concentration of half-maximal effect.

SMILES | VACV Venus inh | Vaccinia mCherry
O=C1c2ccccc2NC2CCCCCN12 (stereo not given) | -5% | -17%
O=C(O)C1C2C=CC(O2)C1C(=O)Nc1ccc(S(=O)(=O)Nc2ccccc2)cc1 (stereo not given) | -15% | -4%
CN(C)c1cccc(CNC(=O)c2ccc3sc([C@@H]4O[C@H](CO)[C@H](O)[C@H](O)[C@H]4O)nc3c2)c1 | 0% | i
CCN(CC)CCNC(=O)c1ccc(NC(=O)c2cc(S(=O)(=O)N3CCCCC3)ccc2N2CCOCC2)cc1 | -9% | -16%
O=C(CCC(=O)N1CC2C[C@@H](C1)Cn1c2cccc1=O)NCCc1ccccc1F | 4% | 2%
C=C1Cc2c(Cl)cc3[nH]c4c5c3c2[C@@]2(O)[C@@H]1C[C@@H]2C(C)(C)O[C@H]5[C@@H]1CC[C@@]2(O)[C@@]35O[C@@H]3[C@@H](O)[C@@H](C(=O)O)O[C@H]5CC[C@]2(C)[C@@]41C | ? | ?
COc1ccc(Cl)c2sc(N(CCN(C)C)C(=O)CCS(=O)(=O)c3ccc(C)cc3)nc12 | -9% | -30%
COC(=O)c1cc(C#N)c(Oc2ccccc2)nc1C | -10% | -21%
CCCOc1ccc(N2C(=O)CC(NCCNc3ccc(S(=O)(=O)CC)cc3)C2=O)cc1 (stereo not given) | -4% | nt
COc1ccc(CN(C)CC(=O)NC(C)c2ccccc2)c(OC)c1 (stereo not given) | -17% | i
Cc1ccsc1CNC(=O)C1(C)CCN1C(=O)C(C)C (stereo not given) | 0% | 20%
COCCn1c(C)cc(C(=O)COC(=O)/C=C/c2ccc(OC)cc2OC)c1C | -3% | -20%
CCc1ccc2[nH]c3nc(C)cc(C)c3c(=O)c2c1 | -15% | -13%
COCCNC(=O)C(c1ccc(C)cc1)N(Cc1ccco1)C(=O)CCC(=O)Nc1ccccn1 (stereo not given) | 4% | -10%
CCN1CCN(c2ccc(N=Cc3ccc(O)cc3O)cc2)CC1 | -12% | -25%
CCN(CC)CCN1C(=O)C(O)=C(C(=O)c2ccco2)C1c1ccccn1 (stereo not given) | -5% | -9%
COc1ccc(/C=C/C(=O)OCC(=O)Nc2ccc(OC)c(S(=O)(=O)N3CCCCC3)c2)cc1 | 8% | i
O=C(O/N=C1\CCS(=O)(=O)c2sccc21)c1ccccc1 | -11% | nt
CN(C)c1ccc(/C=N/n2c(C3CCCCC3)n[nH]c2=S)cc1 | -26% | -4%
COC(=O)CCC(=O)Nc1sc2c(c1C#N)CCCC2 | -25% | nt
COc1nc2ccccc2nc1CCC(=O)O | -2% | 2%
Cc1sc(NC(=O)Cn2[nH]c(=O)c3ccccc3c2=O)nc1-c1ccccc1 | ? | ?
CC1(C)CC(=O)C=C(c2ccc(Oc3ccccc3)cc2)C1=O | -18% | -4%
N#Cc1nc(-c2ccco2)oc1N1CCN(c2ccccc2)CC1 | -15% | nt
Cc1cccc(C(=O)Nc2ccccc2-c2nc(-c3ccccc3)no2)c1 | -13% | -15%
CC1Oc2ccccc2C=C1/C=N\NC(=O)c1cccnc1 (stereo not given) | -7% | -16%
CCOC(=O)C1=C(COC(=O)/C=C/c2cccc(OC)c2)NC(=O)NC1C (stereo not given) | -11% | -1%
Cc1ccc(S(=O)(=O)Nc2c(C)nn(C)c2C)cc1C | -2% | i
Cc1nn(Cc2ccccc2Cl)c(Cl)c1/C=C/C(=O)OCC(=O)NC1CCS(=O)(=O)C1 (stereo not given) | -1% | -4%
COc1ccc(Cn2c(=O)c3oc4ccccc4c3n(Cc3cccc(C(F)(F)F)c3)c2=O)cc1 | -12% | -6%
O=C(CN1CCC(n2nnc3cc(F)ccc32)CC1)NNC(=O)c1ccccc1 | -9% | i
Fc1ccc(-n2nnc(-c3ccccc3Br)n2)cc1 | -11% | i
COc1cc(CCC(=O)OCC(=O)Nc2cccc(S(N)(=O)=O)c2)cc(OC)c1OC | -4% | -13%
COc1ccc(N2C(=O)CCC(C(=O)NCCCN3CCC(C)CC3)C2c2ccc(OC)c(OC)c2)cc1 (stereo not given) | -18% | i
COc1ccc(CCN=C(NS(=O)(=O)c2ccccc2)c2ccccc2)cc1OC | -9% | -16%
NC(=S)N=Nc1c(O)n(Cc2ccc(Br)cc2)c2ccccc12 | 1µM* | 1µM*
CC(C#Cc1c([C@@H](C)Oc2ccccc2)nnn1Cc1ccccc1)Oc1ccccc1 (stereo not given in full) | -13% | -18%
CSC1=NCCN1C(=O)c1cccc(Br)c1 | -17% | i
CCOC(=O)C1C(c2ccccc2O)NC(=O)NC1(O)C(F)(F)F (stereo not given) | -11% | i
CSc1nnc(NC(=O)c2nc(S(=O)(=O)Cc3ccccc3)ncc2Cl)s1 | -2% | -1%
Cc1csc(NC(=O)C(C)N2C(=O)c3ccccc3S2(=O)=O)n1 (stereo not given) | -1% | i
Cn1ncc([N+](=O)[O-])c1C(=O)Nc1nccs1 | 3% | -13%
COc1ccc([C@@H]2[C@@H]3C(=O)N(C(C)(C)C)C(=O)[C@@H]3[C@]3(Cc4ccccc4)C(=O)N(c4cccc(Cl)c4)C(=O)N23)cc1 | -10% | -20%
COc1ccc(-c2nc(SC)n(C)c(=O)c2C#N)cc1OC | -11% | nt
CC(C)NC(=O)CN(Cc1ccc(F)cc1)C(=O)CCC(=O)Nc1nccs1 | 5% | -14%
CCc1nc2nc(C)c(NS(=O)(=O)c3ccc(Br)s3)c(=O)n2[nH]1 | -8% | -4%
COc1ccc(-c2[nH]ncc2CN2CCSCC2)c(OC)c1 | -3% | -6%
CCOC(=O)c1cccc(C2=C(CNC(=O)c3ccc([N+](=O)[O-])cc3)[C@H]3CC[C@@H](C2)N3Cc2ccccc2)c1 | -24% | i
Cc1ccc(C(=O)CS(C)(=O)=O)cc1 | -16% | nt
Cc1nn(C(=O)COc2ccccc2)c(C)c1Sc1ccccc1 | -10% | -8%
CCOC(=O)c1cccc(Nc2ncnc3ccc(C)cc23)c1 | ? | nt
N/C(=N\OC(=O)CCCOc1ccc(Cl)cc1Cl)c1ccncc1 | -3% | -2%
O=C1Cn2c(nc3ccccc32)N1c1ccccc1F | -4% | -12%
c1cc2ccc3ccc(-n4cnnn4)c4ccc(c1)c2c34 | -29% | -19%
COc1ccccc1OCCn1cc(C(=O)c2ccco2)c2ccccc21 | -26% | ?
COc1ccc(OC2(C)CCN(Cc3ccc(-c4ccccc4)o3)C2)cc1 (stereo not given) | -11% | ?
Cc1ccc(Nc2c(-c3ccc(N(C)C)cc3)nc3ncccn23)cc1 | -21% | ?
CCN(CC)S(=O)(=O)c1ccc(N2CCOCC2)c(NC(=O)c2cc(-c3ccccn3)nc3ccccc23)c1 | -17% | ?
O=C(N[C@@H]1C/C=C\C[C@@H](CC(=O)N(CCO)Cc2ccccc2)C(=O)N[C@H](Cc2ccccc2)COC1=O)OCC1c2ccccc2-c2ccccc21 | -9% | ?
CCC(=O)Nc1ccc(C(=O)CSc2nc3ccc(C)cc3[nH]2)cc1 | -14% | -11%

Laid out differently: 2 of the compounds above.
Compound: CCOC(=O)c1cccc(Nc2ncnc3ccc(C)cc23)c1
  VACV Venus inh = ? | Vaccinia mCherry = nt

Compound: N/C(=N\OC(=O)CCCOc1ccc(Cl)cc1Cl)c1ccncc1
  VACV Venus inh = -3% | Vaccinia mCherry = -2%

The results go on:
SMILES | VACV Venus inh | Vaccinia mCherry
Cc1cccc(N(CC(O)Cn2c3ccccc3c3ccccc32)S(=O)(=O)c2ccc(F)cc2)c1 (stereo not given) | -16% | -14%
Cc1ccc(C(=O)CCNc2ccc(Br)cc2)o1 | -17% | -29%
COc1ccc(-c2nc(C(=O)NCC3CCCO3)cc3c2[nH]c2ccccc23)cc1 (stereo not given) | -21% | ?
N#CCCN(C(=O)CN1CCN(S(=O)(=O)c2ccc(Cl)s2)CC1)c1ccc(F)cc1 | -26% | -2%
O=C(CCc1nc(-c2cccs2)no1)Nc1cccc([N+](=O)[O-])c1 | -17% | -8%
Cc1ccc2nc(N3CCN(C(=O)C4CC4)CC3)sc2c1 | -16% | -15%
Cc1cc(C)c(S(=O)(=O)Nc2cccc3nsnc23)c(C)c1 | 12% | -22%
COc1cccc(CNC(=O)C2CCN(S(=O)(=O)c3ccc4c(c3)NC(=O)CO4)CC2)c1 | -21% | i
CCOC(=O)c1cnc(SC)nc1Oc1cccc(NC(=O)c2ccc(Cl)cc2)c1 | -1% | nt
CCCCn1c(N)c(N(CCC(C)C)C(=O)CC2OC(=O)c3ccccc32)c(=O)[nH]c1=O (stereo not given) | -5% | i
COc1cccc(N2CCN(S(=O)(=O)c3c(C)[nH]c(C)c3C(=O)N3CCCC3)CC2)c1 | -4% | -17%
O=C(Nc1nncs1)c1ccc2c(c1)OCO2 | 3% | -7%
O=C(Nc1ccc2ccccc2n1)C1CCCCC1 | -9% | -14%
Cc1ccc2sc(N(CCCN(C)C)C(=O)c3ccc(S(=O)(=O)N4CCCCCC4)cc3)nc2c1C | -12% | -9%
CC1=C(C(=O)OCc2ccccc2)C(c2cccnc2)c2c(n(C)c(=O)n(C)c2=O)N1 (stereo not given) | -7% | -7%
Cc1ccc(C(=O)NNC(=O)c2csc(N3CCOCC3)n2)o1 | -23% | -1%
CC1(C(=O)NNC(=O)c2ccc(=O)oc2)CC1Br (stereo not given) | 13% | -4%
CCCCC1(CCC)C(=O)NC(=S)NC1=O | 0% | i
Cc1cc(NC(=O)OC(C)(C)C)c(-n2nnnc2C(C(=O)c2ccccc2)N2CCOCC2)cc1C (stereo not given) | -2% | -2%
Cc1ccc(-c2cc3nc(C)cc(NCc4ccco4)n3n2)cc1 | -8% | -20%
Cc1nc2nc(SCc3c(F)cccc3Cl)nn2c(C)c1Cc1ccccc1 | -19% | -25%
CC(O)c1nc2ccccc2n1CCOc1ccccc1 (stereo not given) | -19% | nt
N#C/C(=C\c1cn[nH]c1-c1ccc(Cl)cc1)C(=O)NCc1ccccc1 | -17% | -16%
CCCn1c(SCC(=O)NNC(=O)c2ccc(OC)cc2)nnc1C(C)C | -21% | -8%
Cc1[nH]c2ccccc2c1/C=C/c1nccc2ccccc12 | 54%[activator] | -12%
Cc1nn(C)c(C)c1NS(=O)(=O)c1c(C)n[nH]c1C | -2% | -1%
CC1CCN(CC(=O)Nc2sc3c(c2C#N)CCC3)CC1 | -4% | nt
O=[N+]([O-])c1ccccc1CCc1ccccc1[N+](=O)[O-] | 3% | ?
Nc1ccn([C@@H]2O[C@H](C(=O)N3CCCN(Cc4cccs4)CC3)[C@@H](O)[C@H]2O)c(=O)n1 | 0% | 0%
COc1cc(CN(C(=O)c2ccccc2[N+](=O)[O-])c2ccccn2)cc(OC)c1OC | 4% | -12%

13 of the compounds above, as a markdown table:
| smiles | VACV Venus inh | Vaccinia mCherry |
| --- | --- | --- |
| CC1=C(C(=O)OCc2ccccc2)C(c2cccnc2)c2c(n(C)c(=O)n(C)c2=O)N1 (stereo not given) | -7% | -7% |
| Cc1ccc(C(=O)NNC(=O)c2csc(N3CCOCC3)n2)o1 | -23% | -1% |
| CC1(C(=O)NNC(=O)c2ccc(=O)oc2)CC1Br (stereo not given) | 13% | -4% |
| CCCCC1(CCC)C(=O)NC(=S)NC1=O | 0% | i |
| Cc1cc(NC(=O)OC(C)(C)C)c(-n2nnnc2C(C(=O)c2ccccc2)N2CCOCC2)cc1C (stereo not given) | -2% | -2% |
| Cc1ccc(-c2cc3nc(C)cc(NCc4ccco4)n3n2)cc1 | -8% | -20% |
| Cc1nc2nc(SCc3c(F)cccc3Cl)nn2c(C)c1Cc1ccccc1 | -19% | -25% |
| CC(O)c1nc2ccccc2n1CCOc1ccccc1 (stereo not given) | -19% | nt |
| N#C/C(=C\c1cn[nH]c1-c1ccc(Cl)cc1)C(=O)NCc1ccccc1 | -17% | -16% |
| CCCn1c(SCC(=O)NNC(=O)c2ccc(OC)cc2)nnc1C(C)C | -21% | -8% |
| Cc1[nH]c2ccccc2c1/C=C/c1nccc2ccccc12 | 54%[activator] | -12% |
| Cc1nn(C)c(C)c1NS(=O)(=O)c1c(C)n[nH]c1C | -2% | -1% |
| CC1CCN(CC(=O)Nc2sc3c(c2C#N)CCC3)CC1 | -4% | nt |

(cont.)
SMILES | VACV Venus inh | Vaccinia mCherry
Cc1ccc(C(c2sc3nc(-c4ccco4)nn3c2O)N2CCCCC2)cc1 (stereo not given) | -3% | -5%
CC(O)(c1cccc(F)c1)c1nc(-c2cncnc2)cs1 (stereo not given) | -2% | i
COc1ccc(-n2nc(C(=O)NCC(=O)N3CCCCCC3)c3ccccc3c2=O)cc1Cl | 1% | 14%
O=C(CNCC1CCCO1)Nc1ccccc1-n1cccc1 (stereo not given) | -14% | -11%
O=C1NCCN(Cc2cccc(Oc3ccccc3)c2)C1CC(=O)N1CCCO1 (stereo not given) | -18% | i
Cn1cc(NC(=O)Nc2ccc(C(F)(F)F)cc2)c(C(F)(F)F)n1 | -17%[7.34 µM] | 4%[7.34 µM]
CC1CCN(c2nc(-c3ccncc3)nc3ccccc23)CC1 | ? | -17%
C/C(=N/NC(=O)c1ccc(NC(=O)c2ccc(F)cc2)cc1)c1ccccc1 | -25% | -28%
CCCC1(C(=O)O)NC(c2cccc(OC)c2O)C2C(=O)N(c3ccccc3)C(=O)C21 (stereo not given) | -1% | i
CC(C)(C)c1cc(-c2ccco2)c(C#N)c(SCC#N)n1 | -6% | -14%
Oc1cccc(C=NNc2ccccn2)c1 | -10% | -8%
COc1ccc(CN2CCC(n3nccc3NC(=O)c3cccc(F)c3)CC2)cc1O | -11% | i
C[C@@H](O)C(C(=O)N1CCNCC1)n1cc([C@@H](N)CCCCN)nn1 (stereo not given in full) | -3% | -15%
CCOC(=O)c1cn(Cc2ccccc2)nn1 | -9% | -15%
O=C(N/N=C/c1ccc(O)cc1)c1cc[n+](Cc2ccccc2)cc1 | -9% | -12%
C[n+]1cccc(C(=O)NCC2CCCO2)c1 (stereo not given) | -10% | i
CCOc1ccc(S(=O)(=O)Nc2cccc(-c3ccc(OCC)nn3)c2)cc1 | -22% | -16%

From PubChem BioAssay
